VDR inhibitor – inhibitors of human vitamin D receptor | P11473 | Potency, µM, without a hit: max response, negative = inhibition, hits mostly inhibitors | VDR-SRC2-3 peptide fluorescence polarization, 2 h | 400,000 compounds, 0.93% hits; active = well fitted inhibition curve with a large enough effect; inconclusive = small, poorly fitted or top-dose-only effect, or another doubt; inactive = no such curve, though single readings can be large or run the other way; note: series mostly up to about 120 µM
Target sequence (P11473 whole entry, looked up): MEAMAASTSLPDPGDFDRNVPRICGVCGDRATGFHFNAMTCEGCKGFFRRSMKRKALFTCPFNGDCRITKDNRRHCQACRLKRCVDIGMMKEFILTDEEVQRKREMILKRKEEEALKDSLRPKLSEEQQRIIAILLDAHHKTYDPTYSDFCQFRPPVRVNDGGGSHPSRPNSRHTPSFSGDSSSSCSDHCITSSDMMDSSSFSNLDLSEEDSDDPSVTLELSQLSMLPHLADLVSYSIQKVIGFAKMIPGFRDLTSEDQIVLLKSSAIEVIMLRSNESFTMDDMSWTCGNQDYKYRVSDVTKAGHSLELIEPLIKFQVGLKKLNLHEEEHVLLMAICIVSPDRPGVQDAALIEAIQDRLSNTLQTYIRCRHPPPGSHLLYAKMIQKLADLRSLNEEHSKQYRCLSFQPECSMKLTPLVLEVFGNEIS
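Reagent solutions, kept cold and dark, are dispensed first; compounds are then pinned in at 23 nl, plates briefly spun, and incubated 2 h at ambient temperature. Inhibition of VDR–SRC2-3 peptide binding is read by fluorescence polarization.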
* = called active by the depositor; ? = inconclusive; & = joins results of further samples. % is set by controls: 0 for no effect and ±100 for the full control effect; potency is the fitted concentration of half-maximal effect. A portion of the library. The share of hits here may be higher or lower than overall.

O=C(O)CC1S/C(=N/N=C/C2CC=CCC2)NC1=O (centres undefined)
  VDR inhibitor: 16.3%
CCOC(=O)N1CCC(NC(=O)C(NS(=O)(=O)c2ccc3c(c2)CCN3C(=O)CC)C(C)C)CC1 (centres undefined)
  VDR inhibitor: -7.3%
COc1ccc(S(=O)(=O)N2CCCCCC2)cc1C(=O)N(C)CC(=O)Nc1ccccc1Cl
  VDR inhibitor: 15.9%
CC(Sc1ccccc1)C(=O)Nc1ccccc1C(=O)N1CCOCC1 (centres undefined)
  VDR inhibitor: 7.3%
COc1ccc(N=Nc2[nH]c3ccc(C)cc3c2O)cc1
  VDR inhibitor: 6.0%
Cc1ccccc1CN1C(=O)[C@H]2Cc3c([nH]c4ccccc34)C(C)(C)N2C1=O
  VDR inhibitor: -9.9%
O=C(O)c1ccc(CNCc2cc(Cl)ccc2O)cc1
  VDR inhibitor: 6.1%
C=CCSc1nnc(NC(=O)COc2ccc3ccccc3c2)s1
  VDR inhibitor: 22.6%
CCN(CC)CC(=O)Nc1nc(-c2ccc(Cl)cc2)cs1
  VDR inhibitor: 15.8%
CCC(C)NC(=S)N1CCN(Cc2ccc3c(c2)OCO3)CC1 (centres undefined)
  VDR inhibitor: -2.4%

COc1ccc(-c2nc3c(c(=O)[nH]c(=O)n3Cc3ccccc3)n2Cc2ccccc2)cc1
  VDR inhibitor: -4.1%
CCN1CCN(c2cc(-c3ccccc3)nc3cc(-c4cccc(F)c4)nn23)CC1
  VDR inhibitor: -5.7%
CCc1cccc2c(C#N)cn(CCOc3ccccc3OC)c12
  VDR inhibitor: -2.1%
CC(C)COC(=O)OCN1C(=O)CN(CCN2CC(=O)N(COC(=O)OCC(C)C)C(=O)C2)CC1=O
  VDR inhibitor: 4.0%&7.0%&7.7%
Cc1ccccc1OCC(=O)N/N=C1\SCC(=O)N1Cc1ccccc1
  VDR inhibitor: -7.4%
COc1ccc(CCN(C)C(=O)c2cc(-c3ccccc3)nc3ccc(C)cc23)cc1OC
  VDR inhibitor: 2.1%
COc1ccccc1CNC(=O)C(=O)Nc1nccs1
  VDR inhibitor: -5.3%
Cc1ccc(Nc2ncnc3sc4c(c23)CCC(C)C4)cc1C (centres undefined)
  VDR inhibitor: -6.8%
CCc1ccccc1OCC(=O)Nc1cc(S(=O)(=O)N2CCOCC2)ccc1N1CCCCC1
  VDR inhibitor: 12.3%
C#CCOCCOCCOCCNc1nc(N2CCN(C(=O)[C@H](CCC(=O)O)n3cc(C(N)CC(C)C)nn3)CC2)nc(N2CCN(C(=O)[C@H](CCC(=O)O)n3cc(C(N)[C@H](C)CC)nn3)CC2)n1 (some centres undefined)
  VDR inhibitor: -9.3%

COc1ccc(OC)c2[nH]c(=O)c(CCNC(=O)C(=O)c3c(C)[nH]c4ccccc34)cc12
  VDR inhibitor: -16.5%
O=C(COC(=O)c1c(Cl)ccc(Cl)c1Cl)NCC1CCCO1 (centres undefined)
  VDR inhibitor: -11.7%
Cc1ccc(-c2nc(C)c(CCNS(=O)(=O)c3ccccc3F)s2)cc1
  VDR inhibitor: 3.7%
O=C(CSc1nnc(-c2ccco2)o1)NC1CC2CCC1C2 (centres undefined)
  VDR inhibitor: 8.4%
O=C(NNC(=S)Nc1ccccc1)c1ccco1
  VDR inhibitor: 7.8%
CCCCn1c(N)c(N(CC(C)C)C(=O)c2cccc(S(=O)(=O)N3CCN(C(C)=O)CC3)c2)c(=O)[nH]c1=O
  VDR inhibitor: -19.8%
CC(C)[C@H](NC(N)=O)C(=O)NCCc1ccc(Cl)cc1
  VDR inhibitor: -12.8%
Cc1csc(NC(=O)c2cc(-c3ccccc3)nc3ccccc23)n1
  VDR inhibitor: 9.4%
COc1ccc(-c2cnc(SCC(=O)Nc3nc(C(C)(C)C)cs3)n2Cc2ccco2)cc1
  VDR inhibitor: -1.8%
CCCCN1C(=O)C2NN=C(C(=O)OCC)C2C1=O (centres undefined)
  VDR inhibitor: 14.3%

CSc1ccccc1NC(=O)c1cnc2n(c1=O)CCS2
  VDR inhibitor: 0.5%
COc1ccc(NC(=O)CN2CCN(c3ccc(C)cc3C)CC2)cc1
  VDR inhibitor: -19.3%
CCOCCCn1c(SCC(=O)NC(C)(C)C)nc2ccccc2c1=O
  VDR inhibitor: 0.0%
Cc1cc(C)n2nc(SCC(=O)N3CCN(c4ccccc4)CC3)nc2n1
  VDR inhibitor: -7.3%
O=C(Nc1nnc(C2CCCCC2)s1)C1CC(=O)N(c2ccc(F)cc2)C1 (centres undefined)
  VDR inhibitor: -8.9%
CCC(=C(CC)c1ccc(O)cc1)c1ccc(O)cc1
  VDR inhibitor: -15.2%
CCC(C)Sc1nnc(Cc2cc(=O)[nH]c(=O)[nH]2)n1-c1ccc(F)cc1 (centres undefined)
  VDR inhibitor: -8.9%
CC(C)Cn1c(N)c(C(=O)COC(=O)c2cc(-c3ccco3)nc3ccccc23)c(=O)n(C)c1=O
  VDR inhibitor: ?
O=C(Nc1ccccc1OC(=O)c1ccccc1)c1ccccc1
  VDR inhibitor: -10.9%
Cc1cccc(C)c1OC(=O)CSc1nnc(-c2cccs2)o1
  VDR inhibitor: 9.0%

CCOc1ccc(OCC)c(NC(=O)CN(c2ccc(OC)cc2)S(=O)(=O)c2c(C)noc2C)c1
  VDR inhibitor: 19.4%
CC(=O)N1CCC2(CC1)CCN(c1ccc(-c3ccccc3)cc1)CC2
  VDR inhibitor: -9.1%
COc1ccc([C@@H]2[C@@H]3C(=O)N(C(C)(C)C)C(=O)[C@@H]3[C@]3(Cc4ccc(Cl)cc4)C(=O)N(c4ccc(C)cc4)C(=O)N23)cc1
  VDR inhibitor: -1.5%
Cc1ccc2cc(CN(CC3CCCO3)S(=O)(=O)c3ccc4c(c3)OCCO4)c(=O)[nH]c2c1C (centres undefined)
  VDR inhibitor: 13.8%
COCc1nc2ccccc2n1Cc1ccccc1C
  VDR inhibitor: 13.3%
Cc1ccc(C(=O)NC(=S)NNC(=O)c2ccc([N+](=O)[O-])cc2)cc1
  VDR inhibitor: -16.4%
COc1ccccc1-n1c(-c2ccccc2)n[nH]c1=S
  VDR inhibitor: 2.0%
CCOC(=O)C1=CC[C@@H](c2ccccc2Cl)N(S(=O)(=O)c2ccc(C)cc2)[C@H]1C(=O)OCC
  VDR inhibitor: -26.3%
CC(=O)NC(CC(=O)NC1CCCCCC1)c1ccccc1 (centres undefined)
  VDR inhibitor: -7.7%
COc1cccc(NC(=O)C2C3C=CC4(O3)C2C(=O)N(CCCN2CCC(C)CC2)C4C(=O)NC2CCCCC2)c1 (centres undefined)
  VDR inhibitor: -28.1%

CCCCCCc1c(O)nc(SCCN2CCOCC2)[nH]c1=O
  VDR inhibitor: 0.0%
CCc1cccc(C)c1NS(=O)(=O)Cc1ccccc1
  VDR inhibitor: -28.2%
CC/C(O)=C1\C(=O)CCCC1=NCCc1c(C)[nH]c2ccc(C)cc12
  VDR inhibitor: ?
CCCS(=O)(=O)c1c(S(=O)(=O)CCC)c2ccc(C(N)=O)cn2c1C(=O)OC
  VDR inhibitor: -4.1%
CCC1CCCCN1C(=O)CSC1=NN2CCCC(=O)N=C2S1 (centres undefined)
  VDR inhibitor: 13.5%
NC(N)=NCC1COc2ccccc2O1 (centres undefined)
  VDR inhibitor: 14.7%
Cc1noc(C)c1-c1nccc(N(C)C)n1
  VDR inhibitor: -9.6%
O=C(CN1C(=O)C2CCCCN2c2ccc(C(=O)N3CCCC3)cc21)NCc1cccc(F)c1 (centres undefined)
  VDR inhibitor: -1.4%
CCN(CC)CCNC(=O)c1ccc(NC(=O)c2cn(-c3ccccc3)nc2-c2cccs2)cc1
  VDR inhibitor: 24.9%
CN(C)N(Cc1ccccc1)C(=O)C(O)(c1ccccc1)c1ccccc1
  VDR inhibitor: -7.5%

C=CCn1c(=N)n(CC(O)COc2ccc(OC)cc2)c2ccccc21 (centres undefined)
  VDR inhibitor: -3.7%
COc1ccccc1C(=O)C1CCCN(C(=O)c2cc(C(C)C)no2)C1 (centres undefined)
  VDR inhibitor: -0.1%
CCOc1ccccc1C(=O)N1CCOCC1
  VDR inhibitor: -9.9%
CCCC(O)(c1ccc(Br)cc1)C(CN1CCOCC1)c1ccc(Cl)cc1 (centres undefined)
  VDR inhibitor: -5.8%
CC1(C)CCc2cc(S(=O)(=O)N3CCN(S(=O)(=O)c4c(F)cccc4F)CC3)ccc2O1
  VDR inhibitor: 0.7%
O=C(Cc1sc(-c2ccccc2Cl)nc1-c1ccccc1)Nc1ccc(F)cc1
  VDR inhibitor: 8.9%
COc1ccc(Cn2nnnc2CN(Cc2cc3cc(C)ccc3[nH]c2=O)C2CCCC2)cc1
  VDR inhibitor: 7.0%
COc1cccc(OCc2cc(C(=O)N(Cc3nccn3C)C(C)C)no2)c1
  VDR inhibitor: -23.0%
O=C(CCC(=O)OCc1ccc(C(=O)Oc2ccc(Cl)cc2)cc1)Nc1ccccc1
  VDR inhibitor: -2.6%
COc1ccc(CCNC(=O)C2CCCN(S(=O)(=O)c3cc(C)ccc3OC)C2)cc1OC (centres undefined)
  VDR inhibitor: -2.8%

O=C(Nc1nc(-c2ccco2)c(-c2ccco2)s1)c1cnccn1
  VDR inhibitor: -14.4%
O=C(O)c1ccc(/C=C2\CCCc3c2nc2ccccc2c3C(=O)O)cc1
  VDR inhibitor: -28.8%
COc1ccccc1NS(=O)(=O)c1cccc(NC(=O)C(C)NC(=O)c2ccco2)c1 (centres undefined)
  VDR inhibitor: -6.4%
C[C@H](CO)N1C[C@H](C)[C@@H](CN(C)C(=O)Nc2ccccc2)Oc2c(NS(=O)(=O)c3cccs3)cccc2C1=O
  VDR inhibitor: 13.0%
COc1cc(/C=N/N2CCOCC2)ccc1OC(=O)c1ccco1
  VDR inhibitor: -17.4%
CC(=O)NC(CCCNC(=S)NC1CCCCC1)C(=O)O (centres undefined)
  VDR inhibitor: -0.8%
O=C(Nc1ccccn1)c1ccc([N+](=O)[O-])o1
  VDR inhibitor: -1.4%
Cc1ccc(S(=O)(=O)N2CCCCC2)cc1NC(=O)c1nn(C)c(=O)c2ccccc12
  VDR inhibitor: -22.6%
COc1ccc(OC)c(-n2c(=O)c3ccccc3c3ccccc3c2=O)c1
  VDR inhibitor: -2.4%
CC(C)C1C(c2ccccc2)NC(c2ccccc2)CC1(O)c1ccc(F)cc1 (centres undefined)
  VDR inhibitor: -3.3%

CCOC(=O)c1c(C)[nH]c(C(C)=NNC(=O)Cn2nc(C)cc2C)c1C
  VDR inhibitor: -7.0%
O=C(C1CCCO1)N1CCN(Cc2nc3ccccc3c(=O)[nH]2)CC1 (centres undefined)
  VDR inhibitor: -16.3%
N#Cc1c(NC(=O)CN2CCN(C(=O)c3ccco3)CC2)sc2c1CCCCC2
  VDR inhibitor: 6.3%
COc1ccc(C2=NCCc3cc(OC)c(OC)cc32)cc1OC
  VDR inhibitor: 7.9%
COc1ccc(NC(=O)c2ccc(NC(=O)c3ccco3)cc2)c(OC)c1
  VDR inhibitor: 9.3%
COc1ccc(CS(=O)(=O)/C(Cl)=C(/Cl)C(=O)Nc2ccc(OC)nc2)cc1
  VDR inhibitor: 39.8µM*
CCOC(=O)c1ccc(NC2OC(=O)c3ccccc32)cc1 (centres undefined)
  VDR inhibitor: 11.8%
Cc1oc2cc3oc(=O)c(CCC(=O)N(C)CC(=O)O)c(C)c3cc2c1C
  VDR inhibitor: -2.2%
CCCCOc1ccc(C(C)NC(=O)CN2C(=O)CSc3ccc(S(=O)(=O)N4CCOCC4)cc32)cc1 (centres undefined)
  VDR inhibitor: 1.8%
OCC12COC(c3ccccc3)N1C(c1ccccc1)OC2 (centres undefined)
  VDR inhibitor: 12.0%

O=C(Nc1ccc(C(=O)N2CCOCC2)cc1)Nc1ccc(Cl)cc1Cl
  VDR inhibitor: -7.2%
COc1cccc(C(C(=O)NCc2ccccc2)N(C(=O)c2csnn2)C2CC2)c1 (centres undefined)
  VDR inhibitor: -14.5%
O=C1C(Cl)=C(N2CCCCCC2)C(=O)N1c1ccc(Br)cc1
  VDR inhibitor: -2.9%
O=C1CCC([N+](=O)[O-])C(c2cc3c(cc2Cl)OCO3)N1 (centres undefined)
  VDR inhibitor: -4.0%
CCN(CC)CC#CC(C)(C)OC(C)=O
  VDR inhibitor: 2.7%
CCC(Sc1nc2n[nH]c(C)c2c(=N)n1-c1ccc(C)c(Cl)c1)C(=O)N1CCOCC1 (centres undefined)
  VDR inhibitor: 10.5%
CCOC(=O)CSc1nc2c(sc(=S)n2Cc2ccco2)c(=O)n1-c1ccc(F)cc1
  VDR inhibitor: 4.4%
COc1cc(C)ccc1OCCOCCOc1ccc([N+](=O)[O-])cc1
  VDR inhibitor: -1.8%
CCOc1ccc(OCC)c(NS(=O)(=O)c2cc(Br)cc3c2N(C(C)=O)C(C)C3)c1 (centres undefined)
  VDR inhibitor: -4.8%
CCOc1ccc(-c2nnc(-c3cccs3)o2)cc1
  VDR inhibitor: -7.4%

CCOc1ccc(-c2nc(N)ncc2-c2ccc(Cl)cc2)c(O)c1
  VDR inhibitor: -4.1%
CC(=O)Nc1ccc(NC(=O)CC2Sc3ccccc3NC2=O)cc1 (centres undefined)
  VDR inhibitor: -0.4%
Cc1ccc(-c2nnc(SCC(=O)NC3CCS(=O)(=O)C3)nc2-c2ccc(C)cc2)cc1 (centres undefined)
  VDR inhibitor: -4.5%
O=C(NC(=S)NCC1CCCO1)C(c1ccccc1)c1ccccc1 (centres undefined)
  VDR inhibitor: -8.6%
CCOC(=O)c1sc(N2C(=O)C(O)=C(C(=O)c3ccco3)C2c2ccc([N+](=O)[O-])cc2)nc1C (centres undefined)
  VDR inhibitor: 89.1µM*
CCc1ccc(NC(=O)C(=O)NNC(=O)c2ccc(OC)cc2)cc1
  VDR inhibitor: 10.2%
Cc1nnc(NC(=O)Cn2cnc3c2c(=O)n(C)c(=O)n3C)s1
  VDR inhibitor: -0.3%
O=C(COc1ccc2ccccc2c1)N1CCNCC1
  VDR inhibitor: -1.5%
Cc1ccc(OCC(=O)N2C(C)CCCC2C)c([N+](=O)[O-])n1 (centres undefined)
  VDR inhibitor: -1.1%
CCCc1cc2c(cc1NC(=O)c1ccc(C)cc1)OCO2
  VDR inhibitor: 2.2%
CCOC(=O)c1sc(SC)c2c1CCC/C2=N/OC
  VDR inhibitor: 14.3%
COc1ccc(S(=O)(=O)NCCc2ccccc2)cc1OC
  VDR inhibitor: 2.8%
